# Assay outcomes as filed in PubChem BioAssay.
# Ab BasE inh: BasE siderophore biosynthesis inhibition | inhibition, % (no concentration beside the values) | purified BasE, fluorescence polarization binding displacement | hit rate 0.1% among 84,000;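 active = both replicates above 25% with normal brightness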;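 note: 0% = negative plate control signal and 100% = positive plate control signal; stock transfer was 100 nL into about 30 µL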
# KSHV LANA nucl: inhibitors of KSHV LANA binding to nucleosomes; FITC-LANA1-23 / chicken nucleosome fluorescence polarization; stronger effect = lower value; z-score (concentration not given with the values); hit rate 0.3% among 51,000; AID 720717;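 active = both repeat wells score below -2 in polarization z-score versus plate sample wells, excluding overly bright wells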;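 note: 100 nL library stock added to about 30 µL; numbers are from one replicate; some results filed as inactive read as strong as hits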
#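 Material: Purified chicken nucleosomes with FITC-labelled LANA N-terminal peptide (1-23) | Reagent: 50 nM FITC-LANA1-23 probe | Medium: TEN-BT buffer, pH 7.5 | Times: 10–45 min incubation at room temperature | Detection: Fluorescence polarization | Replication: Duplicates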
# Starred values were filed as active, the others as inactive; . = no result given. Not all compounds are listed; the hit share may differ from the screen's.
SMILES,Ab BasE inh,KSHV LANA nucl
Cc1cccc(N2CCN(C(=O)CCNS(=O)(=O)c3ccc4c(c3)oc(=O)n4C)CC2C)c1 (stereo not given),-4.0,-0.8
COC(=O)C1=C(C)N=C2SC(C#N)=C(N)N2C1c1ccccc1 (stereo not given),-0.6,0.56
CC1=C(C(=O)OC2CCCCC2)C(c2ccco2)C2=C(CC(c3ccc(F)cc3)CC2=O)N1 (stereo not given),3.5,-0.9
C=CCNC(=O)CN1CCC(n2nnc3cc(C(F)(F)F)ccc32)CC1,1.5,0.33
C=CCNc1nc(N)c(C(=O)c2ccc(OC)cc2)s1,0.3,0.29
Cc1ccc(-c2csc(N3C(=O)CN=C3SCc3ccc(Cl)cc3)n2)cc1,-0.1,.
Cc1ccc(/C=C2\SC(=S)N(CCCCC(=O)O)C2=O)o1,-0.7,.
O=C(c1noc2c1CCCCC2)N1CCCc2ccccc21,0.5,.
COc1ccc(C2OC(=O)CC2C(=O)NCc2ccc(F)cc2)cc1OC (stereo not given),-0.5,0.43
N#CCSc1nc(-c2ccccc2)cc(=O)[nH]1,0.3,0.22
CS(=O)(=O)N1Cc2ccccc2CC1C(=O)OCC(=O)N1CCc2ccccc21 (stereo not given),0.8,.
Cn1c2ccccc2c2nnc(SCC(=O)c3ccc(Cl)cc3)nc21,0.5,0.51
Cn1c(=O)c(/C(N)=N/O)cn(-c2ccccc2)c1=O,2.7,.
CCCCC1CC1C(=O)Nc1ncc2c(n1)CC(C)(C)CC2=O (stereo not given),4.6,0.5
O=C(COC(=O)/C=C/c1ccco1)Nc1ccc(Cl)cc1,-3.4,.
CCN(c1ccc(OC)cc1)S(=O)(=O)c1ccc2c(c1)N(C(C)=O)CCO2,0.0,-0.61
CCCC(=O)Nc1ccc(C(=O)Cn2nnc(-c3cccc(F)c3)n2)cc1,0.9,.
FC(F)(F)c1cccc(NN=C2CCSCC2)n1,-0.1,-0.26
CN1CCC(NS(=O)(=O)c2ccc(I)cc2)CC1,.,0.099
O=c1[nH]nc(N2CCOCC2)c(=O)[nH]1,0.8,.
CC(=O)Nc1ccc(Nc2cc(C)c(C#N)c3nc4ccccc4n23)cc1,0.7,0.21
Cc1cc(C)cc(C(=O)NCC(=O)OCc2c(C)noc2C)c1,-1.2,.
Clc1ccc(/C=C/C2=Nc3cccc4cccc(c34)N2)cc1,2.6,.
CC1CCN(C(=O)COC(=O)Cn2[nH]c(=O)c3ccccc3c2=O)CC1,0.9,.
O=c1c(Cl)c(Nc2ccc(F)cc2)cnn1-c1ccccc1,-0.1,.
Cc1cccc(S(=O)Cc2ccc(C(=O)NCc3ccccc3)o2)c1 (stereo not given),0.0,-0.26
COCCNC(=O)C1CCN(c2nnc(-n3cccc3)s2)CC1,-0.6,-0.16
O=C(CCC(=O)c1ccc[nH]1)c1ccc(Cl)cc1,-0.3,.
CC(NS(=O)(=O)c1cccc2nsnc12)C(=O)OCc1csc(-c2ccccc2)n1 (stereo not given),-0.9,.
OC(CN1CCSCC1)C(F)(F)F (stereo not given),.,-0.42
CC(C)Cc1nn2c(=O)cc(CSc3nc(-c4ccccc4F)nc4cc(=O)[nH]n34)nc2s1,-0.2,-0.22
Cn1c(=O)c2c(nc(NCCN3CCOCC3)n2C)n(C)c1=O,1.1,0.87
CC1CCCN(C(=O)COC(=O)C2=COCCO2)C1 (stereo not given),-4.0,.
COc1cc2ncnc(NCCCN3CCOCC3)c2cc1OC,-1.9,.
COc1ccc(NC(=O)C2CC(c3ccc(OC)cc3)=NO2)cc1 (stereo not given),0.1,-1.2
Oc1cccc(/C=N/c2c(-c3ccco3)nc3ccccn23)c1,0.0,-0.83
CC(NC(=O)CN1CCN(C/C=C/c2ccccc2)CC1)c1ccccc1 (stereo not given),-0.9,-0.052
Cc1ccc(-n2nc3c(N4CCCC(C(=O)NCCCN5CCCC5=O)C4)nnc(C)c3c2C)cc1 (stereo not given),-2.7,.
CCCC(=O)Nc1cccc(-c2nc3ccccc3o2)c1,-5.1,0.37
CN(CC(=O)Nc1cccnc1)S(=O)(=O)c1ccc(Br)cc1,0.4,0.94
CC(=O)Nc1ccc(C2SCC(=O)N2Cc2ccc3c(c2)OCO3)cc1 (stereo not given),2.2,.
Cc1nc2cc(NC(=O)NC(C)(C)C)ccc2n1C,-5.5,-0.48
Cc1cc(=O)oc2cc(NC(=O)C3CCCC3)ccc12,-1.1,2
CCNc1nc(-c2cc3ccccc3o2)cs1,-0.3,.
CCc1ccc(-c2nc(CS(=O)CC(=O)NCc3ccccc3)c(C)o2)cc1 (stereo not given),-2.9,-0.37
O=c1c(Cl)c(O)c2ccccc2n1Cc1ccccc1,7.0,.
Cc1cccc(-c2noc(-c3ccccc3)n2)c1,-5.4,1.8
Cn1c(=O)n(C)c2cc(/C=C(\C#N)C(N)=C(C#N)C#N)ccc21,-2.6,1.9
Cc1nc(Cc2nnc(SCc3cc4ccccc4nc3Cl)o2)cs1,-2.2,.
CCOC(=O)COc1ccc2c(c1)c(C(=O)OCC)c(C)n2CC,-0.7,-0.18
CC(C)(C)OC(=O)N1CCC2(CC1)C(C#N)=C(N)OC1=C2C(=O)CCC1,-1.1,0.19
CCOc1ccc(NC(=O)CC2C(=O)N(Cc3ccco3)C(=S)N2CCNC(C)=O)cc1 (stereo not given),-1.7,-0.37
CN1CCC(N(C)C(=O)CCCc2nc3ccccc3s2)CC1,-1.5,.
COc1cccc(-c2cc(C(=O)NCc3cccnc3)on2)c1,-3.8,-0.23
O=C(Nc1ccc(N2CCOCC2)cc1)Nc1cccc(C(F)(F)F)c1,0.3,.
S=C(NCCc1ccccc1)NNc1nc2ccccc2o1,-2.5,.
C=CCNC(=O)Cn1c(-c2ccc(F)cc2)nc2ccccc21,-1.0,-0.59
NS(=O)(=O)c1cc(C(=O)NCCc2ccc3c(c2)OCCO3)ccc1Cl,1.6,.
CCOc1ccc(S(=O)(=O)N2CCC(C(=O)N/N=C/c3cc(C)n(CC(C)C)c3C)CC2)cc1,3.2,.
NC(=O)COC(=O)c1cc2nc(Nc3ccccc3)sc2s1,-4.0,.

# Arranged by value in KSHV LANA nucl (smallest number first): 6 from the list above.
SMILES	KSHV LANA nucl
CCc1ccc(-c2nc(CS(=O)CC(=O)NCc3ccccc3)c(C)o2)cc1 (stereo not given)	-0.37
COc1cccc(-c2cc(C(=O)NCc3cccnc3)on2)c1	-0.23
CCOC(=O)COc1ccc2c(c1)c(C(=O)OCC)c(C)n2CC	-0.18
Cc1cccc(-c2noc(-c3ccccc3)n2)c1	1.8
Cn1c(=O)n(C)c2cc(/C=C(\C#N)C(N)=C(C#N)C#N)ccc21	1.9
Cc1cc(=O)oc2cc(NC(=O)C3CCCC3)ccc12	2

# Next section
SMILES,Ab BasE inh,KSHV LANA nucl
N#Cc1ccc(COC(=O)Cc2noc3ccccc23)cc1,-3.6,.
CCN(CC)C(=O)CSc1nc(C)cc(C)n1,2.0,-0.045
Cc1nc2scc(-c3cccs3)c2c(=S)[nH]1,3.3,.
CC1(C)OC(=O)C(=C2C3C4CC5C3C(=C3C(=O)OC(C)(C)OC3=O)C3C2C4C53)C(=O)O1 (stereo not given),1.6,.
CCOC(=O)N1CCC(NC(=O)CCc2c(C)nc3c(c(C)nn3-c3ccc(C)cc3)c2C)CC1,1.7,-1.3
COC(=O)c1cc(-c2cccs2)on1,3.9,-0.43
O=C(NN1CC(=O)N(C2CCCC2)C1=O)c1cccc2ncccc12,0.8,0.25
OC(CNC1CCCCC1)CN1c2ccccc2Sc2ccccc21 (stereo not given),-1.2,.
Nc1cc(Cl)ccc1C(=O)OCC(=O)c1ccc(F)cc1,2.0,.
CC(C)(C)NC(=O)C(C)(C)Oc1ccc(Cl)cc1,-0.2,.
O=C(CNC(=O)C1CCCCC1)OCc1cc(-c2ccccc2)on1,0.2,.
Cc1ccccc1C(=O)Nc1ccc(-c2nc3ccccc3o2)cc1,4.5,-0.68
CN(C)C(=O)COC(=O)c1ccc2ccccc2n1,1.6,.
O=C(CCSc1nnnn1-c1ccccc1)Nc1ccc2c(c1)OCO2,0.4,.
NC(=O)c1sc(-c2ccsc2)cc1NC(=O)/C=C/c1ccsc1,1.1,.
Cc1cc(-n2c(C)cc(C(=O)COc3ccc4ccc(=O)oc4c3)c2C)no1,0.1,.
Cn1c(N)c(C(=O)Cn2cc(S(=O)(=O)N3CCCC3)ccc2=O)c(=O)n(C)c1=O,1.9,.
CC(Sc1nnnn1-c1ccccc1)C(=O)NCCC1=CCCCC1 (stereo not given),0.9,.
Cc1ccc(CN2C(=O)C3CCCN3c3ccc(C#N)cc32)cc1 (stereo not given),.,3
CCCn1c(=NC(=O)C(C)(C)C)sc2cc3c(cc21)OCO3,0.1,-0.14

# Record cards, from the list above. Order of screens: Ab BasE inh, KSHV LANA nucl
# CC1(C)OC(=O)C(=C2C3C4CC5C3C(=C3C(=O)OC(C)(C)OC3=O)C3C2C4C53)C(=O)O1 (stereo not given) as listed: 1.6, .
# CC(C)(C)NC(=O)C(C)(C)Oc1ccc(Cl)cc1 as listed: -0.2, .

# (listing goes on)
SMILES,Ab BasE inh,KSHV LANA nucl
CN1C(=O)C(=Cc2cc3c(cc2Cl)OCO3)C(=O)N(C)C1=S,-0.9,-0.14
CSc1ncc(C(=O)Nc2ccnn2Cc2ccccn2)n1-c1ccc(F)cc1,0.0,.
CCC(=O)Nn1cnc2c(c1=O)C1(CCCCC1)Cc1ccccc1-2,-0.1,0.43
CC(C)(C)NC(=O)CSc1ncnc2c1cnn2-c1ccccc1,1.7,.
N#CCCN(Cn1nnc2ccccc21)c1ccccc1,4.4,0.53
Nc1nc(C2COc3ccccc3O2)ncc1S(=O)(=O)c1ccccc1 (stereo not given),-1.4,.
CC(C)CN(C(=O)c1ccncc1)c1nc2ccccc2s1,-11,.
Cc1cc2occ(CC(=O)N(C)C)c2cc1Cl,-0.4,0.24
CN1C(=O)C(C(N)=O)=C(N)C12CCCC2,2.6,.
CC1Cc2ccccc2N1C(=O)/C=C/c1cccs1 (stereo not given),-1.4,.
CC(=O)Nc1cccc2nsnc12,3.8,-0.12
CCN(C(=O)C1CCCN1S(=O)(=O)c1ccc2c(c1)n(C)c(=O)c(=O)n2C)c1ccccc1 (stereo not given),-0.7,-1.1
NC(=O)c1nn(CC(=O)N2CCCC2c2ccc3c(c2)OCCCO3)c(=O)c2ccccc12 (stereo not given),-0.4,.
COc1ccc(Nc2nc3c(C)cccn3c(=O)c2C=NCc2ccccc2)cc1,2.9,.
CC(=O)N1CCC(N(C(=O)Nc2cccc(Br)c2)C(C)C)CC1,-3.0,0.3
Cc1cc(N(C)C)n2nc(Cc3ccccc3)nc2n1,-0.8,-0.32
Brc1ccc(CSc2ccc(-c3ccco3)nn2)cc1,0.7,0.24
CCOC(=O)/C(C#N)=N\Nc1cc(C)cc(C)c1,1.2,-1.4
CC(C)(C)C/C(=N/O)c1ccccc1,-0.6,0.19
CCCN(CCC)C(=O)CSc1ccc(C)cc1,-1.0,0.22

# Next part, starting with the last 6 of the part before.
SMILES,Ab BasE inh,KSHV LANA nucl
CC(=O)N1CCC(N(C(=O)Nc2cccc(Br)c2)C(C)C)CC1,-3.0,0.3
Cc1cc(N(C)C)n2nc(Cc3ccccc3)nc2n1,-0.8,-0.32
Brc1ccc(CSc2ccc(-c3ccco3)nn2)cc1,0.7,0.24
CCOC(=O)/C(C#N)=N\Nc1cc(C)cc(C)c1,1.2,-1.4
CC(C)(C)C/C(=N/O)c1ccccc1,-0.6,0.19
CCCN(CCC)C(=O)CSc1ccc(C)cc1,-1.0,0.22
Brc1cc2c(cc1CSc1nnc(Cc3ccccc3)o1)OCO2,-0.4,.
C(=N\NC1=NCCCCC1)/c1cn(-c2ccccc2)nc1-c1cccnc1,-4.6,.
CC1=C(C#N)C(NC(=O)c2ccncc2)(C(F)(F)F)C(=O)N1 (stereo not given),1.7,0.35
Cc1ccc(S(=O)(=O)c2nc(S(C)(=O)=O)sc2N(C)C)cc1,-0.5,0.19
c1ccc2[nH]c(NC3=NCCCCC3)nc2c1,1.6,.
S=c1[nH]nc(-c2ccccc2)n1CC1CCCO1 (stereo not given),-1.0,0.55
O=C(CSc1nnc2c(n1)CCCC2)c1ccc2c(c1)OCCO2,2.4,-0.065
O=C(O)CCCN1C(=O)CCC1=O,0.9,-0.027
Cc1ccc(NC(=O)N2Cc3cccn3-c3cccnc32)c(C)c1,-0.7,-0.0095
Cc1cccc(N2CCN(C(=O)Cn3c(=O)[nH]c4ccsc4c3=O)CC2C)c1 (stereo not given),2.5,-0.13
CSc1nnc(C)c(=O)n1COC(=O)COc1ccccc1,0.1,-0.54
CC1(C)C2CCC1(C)C(NC(=O)CC[N+](C)(C)Cc1ccccc1)C2 (stereo not given),-1.7,.
O=C(O)c1sccc1-n1cccc1,.,-0.11
O=C(O)CCc1ccc(-c2cccs2)n1-c1ccccc1C(F)(F)F,0.5,.
CCOc1ccc(Br)cc1C1C(C(=O)OC)=C(N)Oc2cc(N(C)C)ccc21 (stereo not given),-0.3,.
Cc1ccccc1-c1nnc2sc(NC(=O)C(C)C)nn12,0.5,-1.2
O=C(Oc1ccccc1)C1C2CCCCC21 (stereo not given),1.1,-0.021
N#C/C(=C\N1CCC(C(F)(F)F)CC1)S(=O)(=O)c1ccccc1,0.2,-0.4
CCc1nc2ccccc2n1CCc1ccccc1,-1.2,-0.92
Cc1nnc(Sc2nc(Sc3nnc(C)s3)nc(N3CCCCC3)n2)s1,-2.0,-1.1
N#Cc1ccc(NC(=O)NCCc2c[nH]c3ccccc23)cc1,3.2,-0.28
Cc1cc(C)n(CCCC(=O)O)c(=O)n1,2.0,-1.2
O=P(CN(Cc1cccs1)CC1CCCO1)(c1ccccc1)c1ccccc1 (stereo not given),2.1,.
CCc1ccc(C2C(C#N)=C(N)N(N(C)C)C3=C2C(=O)CCC3)cc1 (stereo not given),0.4,0.25
